# GalR3 antag – human GalR3 antagonism; inhibition, % at 3 µM; HEK293 GalR3-CNG cAMP membrane potential fluorescence; galR3 body fused to GalR1 C-terminus; O60755; 360,000 tested, 0.44% active; AID 651719;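 active means inhibition above the screen-wide average plus 3 SD, cut at about 13% in these data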;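 further: forskolin and galanin both at EC90 stimulate the cells; cAMP rise reported by CNG channel membrane potential dye signal; 0% = forskolin plus galanin with DMSO and 100% = forskolin alone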
# OXTR ag – activates the human oxytocin receptor. P30559. CHO-OTR cells, Fluo-8 calcium fluorescence; normalized: DMSO 0%, oxytocin 100%. activation, % at 3 µM. 320,000 tested, 0.32% active;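 active means activation above the mean of all tested compounds plus 3 SD, cutoff set per screening run, cut at about 20% in these data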;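 further: peak over basal fluorescence ratio from a 100 s FLIPR kinetic read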
# GPR7 antag – blocks human GPR7 receptor signaling; 290,000 tested, 1.1% active; AID 1861; P48145; inhibition, % at 4.4 µM; GPR7-expressing cells, fluorescence antagonist assay; in the data active means inhibition above about 16%, passing the limit was not always enough;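 further: cells stimulated with the agonist NPW; 0% = agonist with vehicle and 100% = vehicle without agonist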
# V1R ag counter – counter-screen for oxytocin receptor agonists: human V1a receptor agonists; P37288; CHO-V1R cells, Fluo-8 calcium fluorescence, agonist mode; 0% DMSO, 100% 3 nM vasopressin; activation, % at 3 µM; 320,000 tested, 0.25% active;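 active means activation above the mean activation of all tested compounds plus 3 SD, per screening run, cut at about 20% in these data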;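 further: signal is peak over basal fluorescence ratio across a 100 second FLIPR read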
# Target sequence (P37288 whole entry, looked up): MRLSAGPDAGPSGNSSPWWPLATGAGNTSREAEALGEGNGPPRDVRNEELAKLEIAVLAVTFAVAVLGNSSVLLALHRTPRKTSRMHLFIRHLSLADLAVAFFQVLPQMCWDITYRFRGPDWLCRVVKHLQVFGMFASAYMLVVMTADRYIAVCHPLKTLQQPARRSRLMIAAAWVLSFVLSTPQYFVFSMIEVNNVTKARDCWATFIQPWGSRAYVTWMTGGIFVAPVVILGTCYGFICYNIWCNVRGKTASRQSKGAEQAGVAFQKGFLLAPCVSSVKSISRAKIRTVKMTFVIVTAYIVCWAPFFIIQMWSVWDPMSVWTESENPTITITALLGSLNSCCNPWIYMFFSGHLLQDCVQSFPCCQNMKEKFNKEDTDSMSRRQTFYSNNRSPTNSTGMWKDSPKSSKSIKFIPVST
# PHOSPHO1 inh – inhibitors of human PHOSPHO1 phosphatase | Q8TCT1 | recombinant PHOSPHO1, absorbance phosphatase assay | inhibition, % at 13.3 µM | 290,000 tested, 1.1% active | AID 1565; in the data active means inhibition above about 60%
# The depositor's hits bear a star; x = not tested or not shown; & = joins results of further samples. Only part of the results is shown; count on the stated rates, not on these rows.
cpd	SMILES	GalR3 antag	OXTR ag	GPR7 antag
1	Cc1nnc(SCC2=C(C(=O)O)N3C(=O)[C@@H](NC(=O)Cn4cnnn4)[C@H]3SC2)s1	-4.7	0.3&-0.5	-7.3
2	Cc1nc(=O)c(-c2ccccc2)c(C)n1-c1ccc(O)c(C(=O)O)c1	-2.1	0.6	5.4
3	COc1ccc(/C(N)=N/OC(=O)CSc2ccccc2)cc1	0.0	-1.4	-1.6
4	Cn1cc[nH]c1=S	-1.3	x	-23.9
5	COC(=O)Nc1sc(C)nc1-c1ccccc1	-3.2	-0.1	23.4
6	Cc1ccc2c(CC(=O)N3CCN(S(=O)(=O)c4ccc5c(c4)OCCO5)CC3)coc2c1	-7.7	2.6	4.9
7	O=C(O)Cn1nc(C(F)(F)F)c2c1CCCCC2	-0.1	0.9	5.2
8	O=C(CSc1ncnc2ccccc12)NCc1ccc2c(c1)OCO2	-4.8	-1.8	-9.6
9	COc1cc(S(=O)(=O)n2c(C)nc3ccccc32)ccc1F	5.7	-0.1	5.0
10	CCOC(=O)C1=C(C)NC(C)=C(C(=O)OC)C1c1cccc(Cl)c1Cl (stereo unspecified)	-2.5	-0.5	-3.5
11	Cc1nc2ccccc2n1S(=O)(=O)c1ccc(F)cc1	-0.7	0.6	-10.4

cpd	V1R ag counter	PHOSPHO1 inh
1	1.4&-0.4	13.3
2	0.4	-27.7
3	1.1	4.2
4	x	6.0
5	-0.5	8.8
6	3.9	18.2
7	0.6	21.2
8	-0.6	-10.0
9	1.2	18.0
10	-0.6	3.5
11	1.2	1.9

# Some entries already given with just V1R ag counter:
cpd | SMILES | V1R ag counter
1 | Cc1nnc(SCC2=C(C(=O)O)N3C(=O)[C@@H](NC(=O)Cn4cnnn4)[C@H]3SC2)s1 | 1.4&-0.4
2 | Cc1nc(=O)c(-c2ccccc2)c(C)n1-c1ccc(O)c(C(=O)O)c1 | 0.4
3 | COc1ccc(/C(N)=N/OC(=O)CSc2ccccc2)cc1 | 1.1

# From no. 5 as far as 7, as listed above:
cpd	SMILES	GalR3 antag	OXTR ag	GPR7 antag
5	COC(=O)Nc1sc(C)nc1-c1ccccc1	-3.2	-0.1	23.4
6	Cc1ccc2c(CC(=O)N3CCN(S(=O)(=O)c4ccc5c(c4)OCCO5)CC3)coc2c1	-7.7	2.6	4.9
7	O=C(O)Cn1nc(C(F)(F)F)c2c1CCCCC2	-0.1	0.9	5.2

cpd	V1R ag counter	PHOSPHO1 inh
5	-0.5	8.8
6	3.9	18.2
7	0.6	21.2
